Screening results from PubChem.
Insulin prom inh = TRM-6 insulin promoter activity inhibition; 130,000 tested, 0.9% active; AID 1273; inhibition, % at 2 µM; TRM-6 cells (human fetal islet line), insulin promoter-eGFP reporter, imaging; reporter expression induced with tamoxifen;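 active means inhibition above the mean plus 3 SD, with well images judged a real hit on visual review, cut at about 60% in these data, passing the limit was not always enough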
RGS16-Gao HTS = modulates binding between human RGS16 and Galphao. bead-based flow cytometry RGS16-Galphao binding, fluorescence; actives lie on both sides. binding response (% of control), % at 10 µM. 220,000 tested, 0.38% active. AID 1441;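 active means below 25% or above 175%, edge rows of some plates excepted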;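 further: Galphao activated by GDP with aluminum fluoride before binding; 100% = wells without compound and 0% = beads without RGS; some results beyond the cut were filed as inactive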
Target sequence (O15492 whole entry, looked up): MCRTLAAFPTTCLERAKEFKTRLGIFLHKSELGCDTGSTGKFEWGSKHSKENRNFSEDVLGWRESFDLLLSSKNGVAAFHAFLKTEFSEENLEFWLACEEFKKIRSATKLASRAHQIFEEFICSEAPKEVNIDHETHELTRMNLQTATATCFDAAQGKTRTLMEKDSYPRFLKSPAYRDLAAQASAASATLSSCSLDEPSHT
Target sequence (P09471 whole entry, looked up): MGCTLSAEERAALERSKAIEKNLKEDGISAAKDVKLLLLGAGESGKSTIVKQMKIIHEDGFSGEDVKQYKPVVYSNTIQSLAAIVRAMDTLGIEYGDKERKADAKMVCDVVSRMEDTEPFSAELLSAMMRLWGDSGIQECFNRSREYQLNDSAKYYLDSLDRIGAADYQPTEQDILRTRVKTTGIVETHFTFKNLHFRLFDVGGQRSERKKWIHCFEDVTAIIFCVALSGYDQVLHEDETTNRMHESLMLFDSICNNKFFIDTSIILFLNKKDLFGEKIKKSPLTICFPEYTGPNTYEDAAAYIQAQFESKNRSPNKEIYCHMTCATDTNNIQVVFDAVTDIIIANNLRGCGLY
PKD1 inh = PKD1 (human) kinase inhibition. Q15139. PKD1 kinase fluorescence polarization assay. inhibition, %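 (about 10 µM by stock and volumes)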. 200,000 tested, 0.056% active. AID 797;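 active means inhibition of 50% or more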;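 further: controls were vehicle for no effect and a reference inhibitor for full effect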
HSV augment = HSV replication enhancement | HSV replication augmentation in cells, fold increase | maximum fold increase | 220,000 tested, 0.005% active | AID 1956;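 active means peak rise of 1.5-fold or more in the series; tested in PC3 cells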;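 further: first round at 10 µM; read as green reporter fluorescence; hits show the peak of a series up to 25 µM; 1 = signal of infected wells without compound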
GALR2 agonist = agonists of human galanin receptor 2 (GALR2); O43603; GALR2-expressing cells, agonist activation read-out; activation, %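 (tested at 5 µM)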; 140,000 tested, 0.48% active;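 active means above mean plus 3 SD of all compounds, about 5% in these data, not always enough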;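 further: 0% = vehicle buffer wells and 100% = reference agonist at full effect; tested in CHO reporter cells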
Target sequence (O43603 whole entry, looked up): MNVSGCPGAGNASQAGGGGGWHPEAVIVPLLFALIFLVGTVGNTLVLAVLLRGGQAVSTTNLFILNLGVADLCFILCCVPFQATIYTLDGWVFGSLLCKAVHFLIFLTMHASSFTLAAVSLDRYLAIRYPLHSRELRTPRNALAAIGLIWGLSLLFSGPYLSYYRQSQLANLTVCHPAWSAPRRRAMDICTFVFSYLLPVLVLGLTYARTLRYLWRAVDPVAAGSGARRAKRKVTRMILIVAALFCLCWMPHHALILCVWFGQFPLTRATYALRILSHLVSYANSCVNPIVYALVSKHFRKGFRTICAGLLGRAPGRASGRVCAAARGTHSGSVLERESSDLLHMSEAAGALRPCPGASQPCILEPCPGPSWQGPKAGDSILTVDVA
Insulin prom inh cell count = also measured in Insulin prom inh; calls as there; normalized cell count, %; measured here: cell count, toxicity; reference of the scale not given here;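 cells exposed to compound for 48 h; stained nuclei by imaging scaled within each plate; lower means fewer cells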
HSV augment primary fold = also measured in HSV augment; calls as there; fold increase; compound at 10 µM; measured here: primary screen fold increase 10 uM; tested in PC3 cells;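 GFP signal in the first replicate; 1 = infected wells without compound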
* hit, by the source's call; i = inactive; · = no result given.

# | Compound | RGS16-Gao HTS | HSV augment primary fold | HSV augment | Insulin prom inh cell count
1 | CCC1(C)Cc2ccccc2-c2c1c(=O)n(-c1ccc(C)cc1)c1nnnn21 (centres undefined) | 117 | · | · | 132
2 | COc1cccc(-c2cc3nc(-c4ccccc4)cc(N4CCCC(O)C4)n3n2)c1 (centres undefined) | 101 | 0.79 | i | ·
3 | CC(=O)Nc1ccc2nc(-c3cccs3)[nH]c2c1 | 102 | · | · | 158
4 | CCOc1ccc(NS(=O)(=O)c2cc(OC)ccc2OC)cc1 | 100 | 0.76 | i | 88
5 | CC(C)C(OC(=O)c1cc2occc2n1C)C(=O)NCc1ccc2c(c1)OCO2 (centres undefined) | 98 | 0.86 | i | ·
6 | Cc1ccc2[nH]cc(CCNC(=O)c3ccc([N+](=O)[O-])cc3)c2c1 | 92 | · | · | ·
7 | c1cc2c(cnc3cscc32)s1 | 39 | 0.88 | i | 146
8 | O=C(OCCCCOC(=O)c1ccccc1)c1ccccc1 | 99 | 0.99 | i | ·
9 | CC(C)CN1C(=O)C(=O)N(CC(=O)Nc2cc(Cl)ccc2Oc2ccccc2)C1=O | 100 | 0.94 | i | 100
10 | O=C(Nc1ccccc1N1CCOCC1)c1csc2c1CCCC2 | 97 | 1 | i | ·

# | PKD1 inh | GALR2 agonist | Insulin prom inh
1 | -1 | -2.2 | 45
2 | -4 | · | ·
3 | 0 | -1.3 | 0
4 | 0 | -1.4 | -54
5 | 4 | -2.4 | ·
6 | -8 | -1.3 | ·
7 | 16 | -0.1 | -45
8 | · | · | ·
9 | -4 | · | -23
10 | · | · | ·

Later entries
# | Compound | RGS16-Gao HTS | HSV augment primary fold | HSV augment | Insulin prom inh cell count
11 | Cc1cc(OCC(=O)NC2CCN(C)CC2)ccc1[N+](=O)[O-] | 101 | 0.9 | i | ·
12 | O=C(C1CCCN1S(=O)(=O)c1cccc2cccnc12)N1CCN(c2ccccc2)CC1 (centres undefined) | 95 | 1 | i | ·
13 | Cc1ccc(S(=O)(=O)NCCC(=O)N2CCN(Cc3ccccc3)CC2)cc1 | 101 | 1 | i | 100
14 | CC(=O)Nc1cccc2c1C(=O)N(c1ccc(C)cc1)C2=O | 99 | 0.95 | i | 110
15 | COc1ccc(-c2nc3nc(C)c(Cc4ccccc4)c(=O)n3[nH]2)cc1 | 106 | 0.8 | i | ·
16 | Cc1cccc(NCc2ccccc2)c1 | 102 | 1.1 | i | ·
17 | CC(C(=O)NCc1cccs1)N1C(=O)c2ccccc2C1=O (centres undefined) | 104 | 0.85 | i | 65
18 | Cc1ccc(NC(=O)OC(C)CNC(=O)Oc2cccc(C)c2)cc1 (centres undefined) | 97 | 0.83 | i | 99
19 | CCN(CC)CC#CCC1(O)c2ccccc2-c2ccccc21 | 88 | 0.87 | i | ·
20 | CCNc1nc(NC(C)(C)C)nc(Oc2ccc(=O)n(-c3ccccc3)n2)n1 | 108 | 0.94 | i | 115

# | PKD1 inh | GALR2 agonist | Insulin prom inh
11 | -8 | · | ·
12 | -12 | -2.9 | ·
13 | -5 | -0.3 | -9
14 | -1 | -2.6 | 56
15 | -5 | -3.8 | ·
16 | · | · | ·
17 | -4 | -3.7 | 41
18 | -5 | · | -78
19 | -2 | -1.4 | ·
20 | 3 | · | -45

The listing continues.
# | Compound | RGS16-Gao HTS | HSV augment primary fold | HSV augment | Insulin prom inh cell count
21 | COC(=O)/C(=C(/F)Sc1cc(C)c(O)c(C)c1)C(F)(F)F | 101 | 1.1 | i | 107
22 | Clc1ccc(-c2c[nH]c3ccccc23)nn1 | 95 | 0.91 | i | ·
23 | C/C(=N\Nc1cccc2cccnc12)c1ccccn1 | 100 | 1.1 | i | ·
24 | O=C(Nc1ccc(Br)cc1F)C1CCCO1 (centres undefined) | 109 | 0.98 | i | 117
25 | COc1ccc(C(=O)NC(NC(=S)Nc2ccc(S(N)(=O)=O)cc2)C(Cl)(Cl)Cl)cc1 (centres undefined) | 107 | 1 | i | ·
26 | COc1ccc(N2C(=O)c3ccccc3NC23CCCC3)cc1 | 96 | 0.85 | i | ·
27 | Nc1cc(-c2ccc(OC(F)(F)F)cc2)nn1-c1ccc(Cl)c(Cl)c1 | 103 | 1.1 | i | ·
28 | COc1cc(-c2nc(-c3ccc(Br)o3)no2)cc(OC)c1OC | 104 | 0.87 | i | ·
29 | O=C(Nc1ccc2oc(-c3cccc4ccccc34)nc2c1)c1ncn[nH]1 | 103 | 0.9 | i | 57
30 | CN(C)c1nn(C(=O)Nc2cccc(C(F)(F)F)c2)cc1-c1ccccc1 | 99 | 0.92 | i | 121

# | PKD1 inh | GALR2 agonist | Insulin prom inh
21 | 0 | -1.4 | -19
22 | -4 | · | ·
23 | 0 | · | ·
24 | 0 | -2.3 | 43
25 | 10 | -0.6 | ·
26 | -9 | · | ·
27 | · | · | ·
28 | -2 | -2.1 | ·
29 | -6 | -2.7 | 21
30 | -1 | -1.2 | 21

(next part)
# | Compound | RGS16-Gao HTS | HSV augment primary fold | HSV augment | Insulin prom inh cell count
31 | Cc1sc(-c2ccncc2)nc1OC(=O)c1cc(Cl)cc(Cl)c1 | 100 | 1 | i | 103
32 | Cc1cccc(C(=O)O/N=C2\CCSc3ccc(C)cc32)c1 | 94 | 1.1 | i | 94
33 | CN(C)CCCN(C(=O)COc1ccccc1)c1nc2c(Cl)cccc2s1 | 103 | 0.98 | i | ·
34 | COc1ccc(COc2cc(-c3cccc(OC)c3)nc3ccc(NC(=O)C(C)C)cc23)cc1 | 108 | 0.66 | i | 53
35 | Cc1ccccc1NC(=O)c1cccc2nc3ccccc3nc12 | 93 | · | · | 127
36 | O=C(CSc1nccc(=O)[nH]1)c1ccccc1Br | 119 | 1.1 | i | 86
37 | CC1(C)CC(=O)C(C(N)=NC(=O)c2ccc([N+](=O)[O-])cc2)=C(O)C1 | 104 | 0.86 | i | 127
38 | CCc1nnc(NC(=O)CSc2nccn2-c2cccc(C)c2C)s1 | 103 | 0.91 | i | ·
39 | COc1cccc(OC)c1NC(=O)NC(=O)c1c(OC)c(Br)cc([N+](=O)[O-])c1OC | 104 | 1.1 | i | ·
40 | COc1cccc(C2CC(c3ccc(Cl)cc3)n3nc(N)nc3N2)c1 (centres undefined) | 102 | 0.91 | i | ·

# | PKD1 inh | GALR2 agonist | Insulin prom inh
31 | -1 | -2.5 | 22
32 | -9 | -2.3 | 4
33 | 5 | · | ·
34 | 0 | -2.1 | -33
35 | 15 | -2.9 | -233
36 | -2 | -4.1 | 41
37 | -2 | · | -38
38 | -4 | -2.3 | ·
39 | · | · | ·
40 | -10 | -1.3 | ·

New compounds follow
# | Compound | RGS16-Gao HTS | HSV augment primary fold | HSV augment | Insulin prom inh cell count
41 | CCc1nnc(NC(=O)CSc2nnc(CSc3nc(C)cc(C)n3)n2C)s1 | 104 | 0.86 | i | 132
42 | CCC(C)c1ccccc1NC(=O)COC(=O)c1ccc(C)c(NC(=O)c2ccco2)c1 (centres undefined) | 101 | 0.91 | i | 183
43 | COc1ccc([N+](=O)[O-])cc1N(CC(O)CN(C)C)S(=O)(=O)c1ccc(C)cc1 (centres undefined) | 102 | 0.88 | i | ·
44 | N#Cc1c(N)oc(-c2cccs2)c1-c1cccs1 | 96 | 1.1 | i | 86
45 | C/C(=N\NC(=O)Cc1cccn1C)c1cccs1 | 27 | 1 | i | 58
46 | O=C(OCC(=O)N1CCc2ccccc2C1)c1cccc([N+](=O)[O-])c1 | 97 | 1.2 | i | ·
47 | O=C(CN1CCN(c2cccc(Cl)c2)CC1)Nc1nccs1 | 103 | 0.91 | i | ·
48 | CN1CCN(c2nc(-c3cccs3)nc3ccccc23)CC1 | 104 | 0.78 | i | 109
49 | CCOC(=O)c1cc2sccc2n1CC(=O)Nc1ccc(OC)cc1OC | 97 | 0.87 | i | 101
50 | O=C(c1ccc(C(F)(F)F)cc1)N1CCC(=O)N(C(COCc2ccc(C(F)(F)F)cc2)Cc2ccccc2)CC1 (centres undefined) | 164 | 0.83 | i | 104

# | PKD1 inh | GALR2 agonist | Insulin prom inh
41 | -5 | -2.3 | 29
42 | 7 | -0.4 | 11
43 | -7 | · | ·
44 | -11 | 0.2 | 38
45 | -16 | -0.8 | 0
46 | 17 | 1.6 | ·
47 | 0 | · | ·
48 | 5 | 0.7 | 0
49 | -21 | -2.3 | 44
50 | 1 | -1.4 | 0

Record cards, from the list above. Values in the order: RGS16-Gao HTS	HSV augment primary fold	HSV augment	Insulin prom inh cell count	PKD1 inh	GALR2 agonist	Insulin prom inh
C/C(=N\NC(=O)Cc1cccn1C)c1cccs1 as listed: 27	1	i	58	-16	-0.8	0
CCOC(=O)c1cc2sccc2n1CC(=O)Nc1ccc(OC)cc1OC as listed: 97	0.87	i	101	-21	-2.3	44

New compounds follow.
# | Compound | RGS16-Gao HTS | HSV augment primary fold | HSV augment | Insulin prom inh cell count
51 | CCc1ccnc(NC(=O)NS(=O)(=O)c2ccc(C)cc2)c1 | 99 | 0.87 | i | ·
52 | COC(=O)c1sccc1NC(=O)c1cccnc1 | 104 | 0.84 | i | 109
53 | Cc1cc(NS(=O)(=O)c2ccc(-c3ccccc3)cc2)no1 | 92 | 0.96 | i | 65
54 | O=C(NC1=NCCS1)C1CCCCC1 | 91 | 1 | i | ·
55 | C=CCn1c(-c2ccc([N+](=O)[O-])cc2)n[nH]c1=S | 107 | 1 | i | 104
56 | COCCNC(=O)C(=O)c1cc(C)n(-c2ccc([N+](=O)[O-])cc2)c1C | 96 | 1.6 | i | 162
57 | Cc1cc(C)cc(C(=O)NCC(=O)OCC(=O)Nc2cccnc2Cl)c1 | 102 | 0.94 | i | ·
58 | O=S(=O)(c1cccc(Cl)c1)N1CCCC1 | 106 | 0.88 | i | 55
59 | O=C(OCc1nnc(-c2ccc(Br)cc2)o1)c1cncc(Br)c1 | 96 | 0.98 | i | 49
60 | CC[N+](CC)(CC)CCCCOc1ccc2c(c1)C(=O)c1cc(OCCCC[N+](CC)(CC)CC)ccc1-2 | 101 | 1.1 | i | ·

# | PKD1 inh | GALR2 agonist | Insulin prom inh
51 | · | · | ·
52 | 6 | -2.3 | 38
53 | -5 | -0.5 | 14
54 | -1 | · | ·
55 | -2 | -0.1 | 50
56 | -3 | -2.7 | -7
57 | 5 | · | ·
58 | 0 | -0.6 | -81
59 | 0 | · | 18
60 | · | · | ·

Next section
# | Compound | RGS16-Gao HTS | HSV augment primary fold | HSV augment | Insulin prom inh cell count
61 | CCOC(=O)CC1C(=O)NCCN1C(=O)c1sc2ccccc2c1Cl (centres undefined) | 109 | 0.97 | i | 106
62 | Cc1cc(C)cc(N(C(=O)Cn2nnc(-c3ccccc3)n2)C(C(=O)NC2CCCCC2)c2ccccn2)c1 (centres undefined) | 104 | · | · | ·
63 | Cc1ccc(OCC(=O)c2ccc3c(c2)CCCC3)cc1C | 98 | 0.85 | i | 95
64 | CSc1nc2c(c(C(F)(F)F)n1)CC(C)CC2 (centres undefined) | 100 | 0.88 | i | 153
65 | CCOC(=O)c1c(NC(=O)CN2CCCCC2)sc2c1CCCC2O (centres undefined) | 104 | 0.78 | i | ·
66 | C=CCc1cccc(C2Nc3ccccc3C(=O)N2O)c1O (centres undefined) | 62 | 0.99 | i | 78

# | PKD1 inh | GALR2 agonist | Insulin prom inh
61 | 1 | · | -6
62 | 11 | -1.6 | ·
63 | 6 | -1.5 | 27
64 | -4 | -0.6 | -3
65 | 0 | -2.8 | ·
66 | 1 | -1.1 | -42

Molecules from the list above containing a thiophene ring, fused or not:
# | Compound | RGS16-Gao HTS | HSV augment primary fold | HSV augment | Insulin prom inh cell count
3 | CC(=O)Nc1ccc2nc(-c3cccs3)[nH]c2c1 | 102 | · | · | 158
7 | c1cc2c(cnc3cscc32)s1 | 39 | 0.88 | i | 146
10 | O=C(Nc1ccccc1N1CCOCC1)c1csc2c1CCCC2 | 97 | 1 | i | ·
17 | CC(C(=O)NCc1cccs1)N1C(=O)c2ccccc2C1=O (centres undefined) | 104 | 0.85 | i | 65
44 | N#Cc1c(N)oc(-c2cccs2)c1-c1cccs1 | 96 | 1.1 | i | 86
45 | C/C(=N\NC(=O)Cc1cccn1C)c1cccs1 | 27 | 1 | i | 58
48 | CN1CCN(c2nc(-c3cccs3)nc3ccccc23)CC1 | 104 | 0.78 | i | 109
49 | CCOC(=O)c1cc2sccc2n1CC(=O)Nc1ccc(OC)cc1OC | 97 | 0.87 | i | 101
52 | COC(=O)c1sccc1NC(=O)c1cccnc1 | 104 | 0.84 | i | 109
61 | CCOC(=O)CC1C(=O)NCCN1C(=O)c1sc2ccccc2c1Cl (centres undefined) | 109 | 0.97 | i | 106
65 | CCOC(=O)c1c(NC(=O)CN2CCCCC2)sc2c1CCCC2O (centres undefined) | 104 | 0.78 | i | ·

# | PKD1 inh | GALR2 agonist | Insulin prom inh
3 | 0 | -1.3 | 0
7 | 16 | -0.1 | -45
10 | · | · | ·
17 | -4 | -3.7 | 41
44 | -11 | 0.2 | 38
45 | -16 | -0.8 | 0
48 | 5 | 0.7 | 0
49 | -21 | -2.3 | 44
52 | 6 | -2.3 | 38
61 | 1 | · | -6
65 | 0 | -2.8 | ·
